VACV E9 pol inh: vaccinia E9 polymerase processive synthesis inhibition; in vitro processive DNA synthesis, absorbance read-out; hits give low values; some inactives read as strong as hits; normalized absorbance, % (no concentration beside the values); actives 0.94% (n = 46,000);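 active = replicate mean up to 90% and picked by the depositor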;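 also: 100% = median of the test wells of a plate; 100 nL library stock went into each well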
* marks the source's active call; other numbers are inactive results; & = joins results of further samples.

SMILES	VACV E9 pol inh
CN(C)CCNc1cn[nH]c(=O)c1Cl	101
COc1cccc(NC(=O)c2cn(C3CCCC3)c(=O)c3c2c2ccccc2n3C)c1	99
Cc1cccn2c(=O)c3cc(C(=O)NCC4CCCO4)c(=N)n(C4CCCCC4)c3nc12 (stereo not given)	100
O=c1n(CCCN2CCN(c3cccc(Cl)c3)CC2)nc2ccccn12	15*
CCN1CCN(C(=O)c2ccc(NC(C)=O)cc2)CC1	99
Cc1c(N=C2c3ccccc3-c3ccccc32)c(=O)n(-c2ccccc2)n1C	101
COC(=O)CSCc1n[nH]c(=O)c2ccccc12	102
O=C(O)c1ccccc1C(=O)c1ccc2c(c1)CCC2	88
CCc1cc(=O)oc2cc(O)ccc12	71
C=CCn1c(-c2ccc(N)cc2)nc2ccccc21	101
NCCCn1c2c(c3ccccc31)CCCC2	104
Nc1nc(-c2ccc3c(c2)OCCO3)cs1	97&92
S=C1NCN(Cc2cccs2)CN1	96
N#Cc1cc(C#N)c(SCC(=O)NC2CCCCC2)nc1N	100
Clc1ccc(OCCSc2ncnc3ccccc23)cc1	100
O=C(Nc1ccccc1)N1CCn2c(nc3ccccc32)C1	100
O=C(COC(=O)c1cc2cc(Br)cc(Br)c2oc1=O)c1cccs1	88
COc1ccc2nc(NC(=O)c3cccnc3)sc2c1	99
CN(C)CCOC(c1ccccc1)c1ccccc1 (tested in a mixture with another compound)	95
CC(C)n1c(=S)[nH]c2ccccc2c1=O	97
O=C(Nc1nccs1)C12CC3CC(C1)CC(C(=O)Nc1nccs1)(C3)C2	100
Cc1cc(C)cc(OCC(O)CNC(C)(C)C)c1 (stereo not given)	102
COc1ccccc1NC1=NCC(C)S1 (stereo not given)	103
CNC(=O)Cn1c(-c2cccs2)cc2ccccc21	97
CCNc1nc(NC(C)C)nc(Oc2ccc(/C=N/O)cc2)n1	101
CCOC(=O)CSC1=C(C#N)C(c2cccc(Cl)c2)CC(=O)N1 (stereo not given)	98
O=C(Cc1ccccc1)NCc1ccc2[nH]c3c(c2c1)CCCC3	98
Clc1ccc(OCc2cn3ccccc3n2)c2ncccc12	105
O=C(O)/C=C/C(=O)N1CCc2ccccc21	99
CCN1C(=O)C(=Cc2ccc(-c3ccccc3F)o2)C(=O)N(CC)C1=S	100
CN1C(=O)c2ccccc2Sc2ccc(C(=O)O)cc21	97
C/C=C\C(=O)NCc1ccc2c(c1)cc(C)n2C	93
CCOc1ccc2c(-c3ccccc3)cc(=O)oc2c1C	100
CC(C)CCNC(=O)c1ccc(CS(=O)(=O)c2ccc(Br)cc2)o1	90
COC(=O)c1sc(-c2ccccc2)cc1NC(=O)C1COc2ccccc2O1 (stereo not given)	100
Cc1ccc(OCCNC(=O)c2ccc(C(C)(C)C)cc2)cc1	100
Cc1cc(NS(=O)(=O)c2ccc3c(c2)OCCO3)no1	107
NC(=O)c1c(NC(=O)c2ccccc2)sc2c1CCCC2	111
Cc1c(Cl)cccc1NS(=O)(=O)c1cccc2nsnc12	93
COc1ccc(-c2nnc3s/c(=C\c4ccco4)c(=O)n23)cc1OC	100
CC1CN(C(=O)COC(=O)c2cccc(Cl)c2)CC(C)O1 (stereo not given)	98
CCC(C)C(=O)Nc1ccc(Cl)cc1 (stereo not given)	93
Cc1ccc(C=Nc2ccc3ccccc3c2)o1	98
CC1CCCC(NC(=O)CNC(=S)N(Cc2ccccc2)Cc2cccs2)C1C (stereo not given)	101
O=c1c(F)cn(C2CCCO2)c(=O)n1Cc1ccc(Cl)cc1 (stereo not given)	100
Cc1ccc(C(C)N2CCNCC2)cc1C (stereo not given)	101
CC(=O)N[C@@H](Cc1c[nH]c2ccccc12)C(N)=O	99
CCOc1ccc2nc(SCC(=O)Nc3ccccc3)[nH]c2c1	100
CN1CCN(c2nc(N3CCN(CCO)CC3)nc3ccccc23)CC1	96
Cn1c(-c2ccccc2)c[nH]c1=S	101
O=C(/C=C1/NCC2c3ccccc3CCN2C1=O)c1ccc(F)cc1 (stereo not given)	96
Fc1ccccc1Nc1ncnc2sc(-c3ccccc3)cc12	88
O=C(Nc1ccc(F)cc1)N1CCN(C2c3ccccc3-c3ccccc32)CC1	109
O=C(O)/C=C/c1ccc(Br)o1	72*
CCOc1ccc(C(=O)NCc2ccc3[nH]c4c(c3c2)CCCC4)cc1	93
Cc1csc2nc(CS(=O)(=O)c3ccc(Cl)cc3)cn12	105
COC(=O)c1ccccc1N/C=C/C(=O)c1ccc(Br)cc1	100
O=c1c(C(CN2CCOCC2)c2ccccc2)nc(-c2ccccc2)nn1CN1CCOCC1 (stereo not given)	90
CN(C)CC(O)Cn1c2ccc(Cl)cc2c2cc(Cl)ccc21 (stereo not given)	27*
COC(=O)Nc1ccc(SCC(=O)c2ccc(Cl)cc2)cc1	106

Fetched one by one from the list above (8):
SMILES	VACV E9 pol inh
CCOc1ccc(C(=O)NCc2ccc3[nH]c4c(c3c2)CCCC4)cc1	93
Fc1ccccc1Nc1ncnc2sc(-c3ccccc3)cc12	88
COC(=O)c1ccccc1N/C=C/C(=O)c1ccc(Br)cc1	100
O=C(/C=C1/NCC2c3ccccc3CCN2C1=O)c1ccc(F)cc1 (stereo not given)	96
CN(C)CC(O)Cn1c2ccc(Cl)cc2c2cc(Cl)ccc21 (stereo not given)	27*
O=C(O)/C=C/c1ccc(Br)o1	72*
CN1CCN(c2nc(N3CCN(CCO)CC3)nc3ccccc23)CC1	96
Cc1csc2nc(CS(=O)(=O)c3ccc(Cl)cc3)cn12	105

Remaining list, next part:
SMILES	VACV E9 pol inh
CN1C/C(=C\c2ccccc2Cl)C(=O)/C(=C/c2ccccc2Cl)C1	88
Nc1c(C(=O)O)sc2ncccc12	101
CC1=C(C(=O)OC2CCCC2)C(c2ccncc2)C2=C(CC(c3ccccc3)CC2=O)N1 (stereo not given)	92
O=C(COc1cccc2c1CCN(Cc1ccc(Br)cc1)C2=O)N1CCOCC1	100
CCOC(=O)NS(=O)(=O)c1ccc(C)cc1	100
CCCCn1c(N)c(C#N)c2nc3ccccc3nc21	95
NC(=O)c1ccsc1NC(=O)c1ccco1	94
O=C(C1CCCC1)N1CCc2ccccc21	95
CC1=CC(C)(C)N(C(=O)/C=C/c2ccccc2)c2ccc(C)cc21	100
CCOC(=O)c1snc2c(=O)[nH]cnc12	104
CCN(CC)C(=S)SC1CCCCN(C(=O)c2ccc(F)cc2)C1=O (stereo not given)	92
Cc1ccc(NC(=O)CS(=O)Cc2nc(-c3ccc(C)cc3)oc2C)cc1 (stereo not given)	100
CCCCC(=O)Nc1ncc(Cc2ccccc2)s1	104
O=C(Cc1ccccc1)c1ccccc1	104
CC(C)COCC(CN(Cc1ccccc1)c1ccccc1)N1CCCC1 (stereo not given)	100&100
Nc1c(-c2ccc(Cl)cc2)cnc2ncnn12	86
CCc1nnc(NC(=O)Nc2ccccc2C(F)(F)F)s1	94
N/C(=C\C(=O)c1ccc(Br)cc1)C(F)(F)F	100
Clc1cccnc1N1CCOCC1	117
COC(=O)c1ccc(CNC(=O)c2ccc(Oc3ccccc3)cc2)cc1	98
Cc1cc(OC(=O)c2ccco2)nc(SCc2c(Cl)cccc2Cl)n1	50*
CC12CCC(CC(=O)c3ccccc3)(CC1)CC2	100
COc1ccc(NC(=O)CCn2c(=O)[nH]c3ccccc3c2=O)cc1OC	102
O=C(NC(=S)Nc1ccccc1Cl)c1ccc(Cl)cc1	100

10 entries from above, with bars between the fields.
SMILES | VACV E9 pol inh
CC(C)COCC(CN(Cc1ccccc1)c1ccccc1)N1CCCC1 (stereo not given) | 100&100
Clc1cccnc1N1CCOCC1 | 117
COC(=O)c1ccc(CNC(=O)c2ccc(Oc3ccccc3)cc2)cc1 | 98
CC12CCC(CC(=O)c3ccccc3)(CC1)CC2 | 100
O=C(NC(=S)Nc1ccccc1Cl)c1ccc(Cl)cc1 | 100
Nc1c(-c2ccc(Cl)cc2)cnc2ncnn12 | 86
N/C(=C\C(=O)c1ccc(Br)cc1)C(F)(F)F | 100
Cc1cc(OC(=O)c2ccco2)nc(SCc2c(Cl)cccc2Cl)n1 | 50*
CCc1nnc(NC(=O)Nc2ccccc2C(F)(F)F)s1 | 94
O=C(Cc1ccccc1)c1ccccc1 | 104

Other records
SMILES	VACV E9 pol inh
CCOC(=O)Nc1ccc(C)s1	100
FC(F)(F)c1cccc(-c2nnnn2-c2cccc(Cl)c2)c1	116
CCCC(=O)Nc1sc(C(=O)Nc2cccc(C)c2C)c(C)c1C#N	100
COc1cc(OC)cc(C(=O)Nc2cccc3nsnc23)c1	100
O=C(NC1CCCC1)c1ccc(COc2cc(Cl)ccc2Cl)o1	101
COc1ccc(CCNC(=O)CCn2c(SCC#N)nc3ccccc3c2=O)cc1OC	102
O=C(Nc1ccc(N2CCCCC2)cc1)c1ccncc1	100
O=S(=O)(c1ccc(Cl)c(Cl)c1)N1CCOCC1	87
Cc1cccc(CCNC(=O)[C@H](Cc2ccccc2)N2Cc3ccccc3C2=O)c1	105
Cc1c(C(=O)/C=C/N(C)C)nnn1-c1cccc(Cl)c1Cl	110
CCn1c(C(Cc2ccccc2)NC(=O)C(C)(C)C)nc2ccccc21 (stereo not given)	101
BrCC1(c2ccccc2)OCCO1	110
Cc1ccc(OCC(=O)Nc2nc3ccccc3s2)c(C)c1	82
CCn1c(C(=O)N2CCC(C(=O)NCc3ccc(Cl)cc3)CC2)cc2occc21	106
Cc1cc2nc(-c3ccc(N=Cc4cccc(C)c4O)cc3)oc2cc1C	101
Cc1cccc(Nc2nc(-c3sc(C)nc3C)cs2)c1	88
Cc1ccc(S(=O)(=O)c2no[n+]([O-])c2S(=O)(=O)c2ccc(C)cc2)cc1	92
CNC(=O)n1cc(-c2ccccc2)c(C)n1	100
Cc1cccc2nc(CSc3nnc4ccccn34)cn12	100
Cc1ccc2sc(-c3ccc(N4C(=O)C5CC=CCC5C4=O)cc3)nc2c1 (stereo not given)	102
Cc1cc(C)nc(-n2cc3c(=O)[nH]c(=S)[nH]c3n2)n1	109
CCCN(CCC)S(=O)(=O)c1ccc(OC)c2ncccc12	100
CCC(C)(CC(=O)O)CC(=O)Nc1cc(C(F)(F)F)cc(C(F)(F)F)c1 (stereo not given)	94
Clc1ccc2c(c1)c(-c1ccccc1)nc1nncn12	100

Taken from above:
VACV E9 pol inh with O=c1n(CCCN2CCN(c3cccc(Cl)c3)CC2)nc2ccccn12 is entered as 15*
VACV E9 pol inh with CC12CCC(CC(=O)c3ccccc3)(CC1)CC2 is entered as 100

Later entries.
SMILES	VACV E9 pol inh
CC(C)(C)C(=O)Nc1cccc(-c2nc3ccccc3[nH]2)c1	108
CCN(C(=O)CSC1=NCCS1)C1CCCCC1	104
COc1ccc2c(C)[nH]c(=O)cc2c1	93
NC(=O)C1CCN(C(=O)c2ccc(/C=C3/Oc4ccccc4N(Cc4ccccc4F)C3=O)cc2)CC1	99
Cn1cnc(S(=O)(=O)N(Cc2ccccc2)Cc2ccccc2N2CCC(C(=O)O)CC2)c1	93
O=C(OCc1c(F)cccc1Cl)c1ccc(Cl)cc1	89
COc1ccc(-c2nn(-c3ccccc3)cc2CCC(=O)O)cc1	98
CCOC(=O)N1CCN(CC(O)COc2cc(C)c(Cl)c(C)c2)CC1 (stereo not given)	100
O=C(Cc1ccccc1)c1ccc(Br)cc1	107
Cc1ccc(C(=O)CC2(O)C(=O)Nc3ccccc32)o1 (stereo not given)	99
CCN(CC)CCn1nc(C)nc1-c1ccccc1O	91
CC(C)(C)N=C1OC(c2ccccc2)(C(F)(F)F)NC(=S)N1c1ccccc1 (stereo not given)	100
Cc1ccccc1C(=O)Nc1n[nH]c(C(F)(F)F)n1	97
CC(C)c1ccc(OCC(=O)Nc2ccccc2C(F)(F)F)cc1	100
CC(C)(C)c1cc(-c2ccc(Cl)cc2)c(C#N)c(N)n1	100
Cc1onc(-c2c(Cl)cccc2Cl)c1C(=O)N(C)C	106
COc1ccc(C(=O)Nc2ccc(C(O)(C(F)(F)F)C(F)(F)F)cc2)cc1	92
O=c1oc2ccccc2c(O)c1C=Nc1cccnc1	90
COC(=O)c1cc(-c2ccccc2)nc2ccc(C)cc12	105
S=C(NCCc1ccc(Cl)cc1)Nc1ccccc1	103
CCN(CC)c1nc(C)nc2ccccc12	100
CCc1nc(C)ccc1OCC(=O)N(CC)CC	99
CCOC(=O)N1CCN(Cc2nnc(-c3ccc4c(c3)OCO4)o2)CC1	99
NNC(=O)Cc1csc(-c2cccc(-n3cccc3)c2)n1	101
COc1ccccc1N1CCN(C(=O)Oc2ccccc2)CC1	100
CCOC(=O)Cc1csc(/C(=N/O)C(N)=O)n1	100
CC1CCCN(Cc2nc3c(c(=O)n(C)c(=O)n3C)n2CCc2ccccc2)C1 (stereo not given)	98
CC(C)n1cc(-c2nc(C(C)(C)C)cs2)c(=O)n(Cc2ccccc2)c1=O	98
CCN(CC)c1ncnc2nc[nH]c12	118
CC(C)C(=O)Nc1c2c(nn1-c1ccccc1)CSC2	99
O=C(NCc1cccnc1)C1c2ccccc2C(=O)N1Cc1ccccc1 (stereo not given)	100
Cc1c(C(=O)NCC2CCCO2)sc2nc(-c3ccc(F)cc3)cn12 (stereo not given)	100
COc1ccc(CSc2nnc(SCc3ccc(C(=O)O)cc3)s2)cc1	98
CCCNS(=O)(=O)c1nc2nc(C)cc(C)n2n1	101
COc1c2occc2c(OC)c2c(=O)cc(C)oc12	97
CCN(CC)c1ccc(/C=C2/SC(=Nc3cccc(C)c3)NC2=O)c(OC)c1	100
CNC(=O)C(NS(=O)(=O)c1ccc(C)cc1)C(C)C (stereo not given)	101
O=C(O)CSc1nnc(-c2ccccc2Br)n1C1CCCCC1	100
COc1ccc(NC(=O)c2sc3cc(Cl)ccc3c2Cl)cn1	90
O=C(O)C12CCCC(C(=O)O)(CCC1)C2	98
NC1=NC(c2ccccc2C(F)(F)F)N(c2ccc(F)c(Cl)c2)C(N)=N1 (stereo not given)	96
O=C(O)c1ccccc1OP(=O)(O)O	98
CCc1cccc(C)c1N(C(=O)Cn1c(COC)nc2ccccc21)C(C)COC (stereo not given)	120
O=C1Nc2ccccc2S/C1=C/c1ccc(C(=O)NC2CCCC2)cc1	92
CCc1ccc(NS(=O)(=O)c2ccc(CN3C(=O)c4cccnc4C3=O)cc2)cc1	99
CCOC(=O)C1CCN(C(=O)CSc2ccccc2Cl)CC1	99
CCOC(=O)c1sc(NC(=S)NC(=O)c2cc3ccccc3o2)nc1C	100
N#CC(=S)Nc1ccc(F)cc1	106

High-throughput results deposited in PubChem BioAssay by ICCB-Longwood Screening Facility, Harvard Medical School.

A portion of the library; rates above refer to the full screens.
